# SARS PLP yeast – qHTS of Yeast-based Assay for SARS-CoV PLP; AID 485353, 2010; Potency, µM (doses to about 32.9 µM), without a hit: at the top dose activity, positive = growth rescue; 330,000 compounds, 0.19% hits; S. cerevisiae expressing SARS-CoV PLpro, growth rescue; control for the full effect not named in the record; note: 0% is about no effect; nearly all actives have a fitted effect of over 55% in size; growth read by luminescence after 48 h
# MARV entry inh – qHTS for inhibitors of binding or entry into cells for Marburg Virus. Marburg virus pseudotyped entry inhibition, cell reporter; control for the full effect not named in the record; about a third of the inactives were read at about 46 µM. Potency, µM (highest dose often 37.8 µM), inactives show at the top dose activity change, negative = inhibition, hits mostly inhibitors. 300,000 compounds, 1.8% hits. AID 540276, 2011; active = well fitted inhibition curve with a large enough effect; inconclusive = small, poorly fitted or top-dose-only effect, or effect the other way; inactive = flat fitted curve, though single readings scatter; tested in HEK293 cells; about a fifth of its hits are not listed in these tables; note: % is set by controls: 0 for no effect and ±100 for the full control effect; luciferase read-out
# Cruzain Triton – qHTS Assay for Promiscuous and Specific Inhibitors of Cruzain (with detergent); Cruzipain (Trypanosoma cruzi), P25779; purified cruzain, Z-FR-AMC fluorescence, 0.01% Triton; Potency, µM, inactives show max response, negative = inhibition, most hits filed as inhibitors; 200,000 compounds, 0.43% hits; AID 1478, 2009; active = well fitted curve in the direction sought with a large enough effect; inconclusive = small, poorly fitted or top-dose-only effect, or another doubt; inactive = no such curve, though single readings can be large; an effect the other way counts as inactive or inconclusive;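 note: plate controls were neutral wells for no effect and buffer without enzyme for full effect; nearly all actives have a fitted effect of over 40% in size; top concentration of the series not given in the record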
# Target sequence (P25779 123-467 limits assumed): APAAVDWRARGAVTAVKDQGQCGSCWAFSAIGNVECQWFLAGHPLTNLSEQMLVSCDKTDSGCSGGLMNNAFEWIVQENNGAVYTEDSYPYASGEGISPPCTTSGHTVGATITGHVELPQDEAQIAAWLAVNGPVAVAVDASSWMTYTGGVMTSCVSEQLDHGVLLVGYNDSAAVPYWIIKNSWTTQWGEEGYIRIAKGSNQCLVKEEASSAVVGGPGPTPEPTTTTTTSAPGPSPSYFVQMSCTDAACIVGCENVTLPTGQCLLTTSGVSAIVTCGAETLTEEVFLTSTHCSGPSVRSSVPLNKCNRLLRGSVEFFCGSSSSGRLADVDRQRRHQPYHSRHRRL
#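 Purified cruzain (1.5 nM final) was preincubated with compounds for 15 min at room temperature in 100 mM sodium acetate pH 5.5, 5 mM DTT, 0.01% Triton X-100. Reaction started with 2 uM Z-FR-AMC; AMC fluorescence change over 60 s gave activity.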
# 2A StopGo – High Throughput Screening for Foot and Mouth Disease Virus Antivirals; human cells with a luciferase reporter of 2A StopGo recoding; control for the full effect not named in the record; Potency, µM (titrated, usually from 57.9 µM), for inactives: at the highest dose signal change, negative = less light; 410,000 compounds, 1.2% hits; AID 1159524, 2015; active = well fitted falling curve with a large enough effect; inconclusive = small, poorly fitted or top-dose-only effect; inactive = no such curve, though single readings can be large or run the other way; tested in HEK293T cells; note: % is set by controls: 0 for no effect and ±100 for the full control effect; nearly all actives have a fitted effect of over 45% in size; luciferase light after 4 h
# LASV entry inh – qHTS for Inhibitors of binding or entry into cells for Lassa Virus | 300,000 compounds, 1.2% hits | Potency, µM (doses to about 37.9 µM), for the others: at the highest dose activity change, negative = inhibition, most hits filed as inhibitors | Lassa virus pseudotype entry inhibition, cell reporter; control for the full effect not named in the record | AID 540256, 2011; active means well fitted inhibition curve with a large enough effect; inconclusive means small, poorly fitted or top-dose-only effect, or effect the other way; inactive means flat fitted curve, though single readings scatter; tested in HEK293 cells; note: % is set by controls: 0 for no effect and ±100 for the full control effect; nearly all actives have a fitted effect of over 50% in size; luciferase read-out
# NS1 inh – qHTS Assay for Inhibitors of Influenza NS1 Protein Function | S. cerevisiae slowed by influenza A NS1, growth recovery by OD600 | Potency, µM (titrated, usually from 46.1 µM), without a hit: top-dose activity, positive = more growth | 270,000 compounds, 0.4% hits; note: actives are rising curves; nearly all actives have a fitted effect of over 50% in size
#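 In this qHTS, NS1 from influenza A is expressed in budding yeast, where it slows growth. Cells are switched from glucose to 2% galactose medium (pH 6.0, -URA), treated with compound, and growth recovery is read at OD600.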
# RE007 growth inh – qHTS Assay for Inhibitors of the HIV-1 protein Vpr. S. pombe RE007 Vpr strain, BacTiter-Glo ATP luminescence, 24 h; control for the full effect not named in the record. Potency, µM (top dose mostly 92.2 µM), inactives show top-dose activity change, negative = less growth. 360,000 compounds, 0.21% hits; active = well fitted falling curve with a large enough effect; inconclusive = small, poorly fitted or top-dose-only effect; inactive = no such curve, though single readings can be large or run the other way;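 note: % is set by controls: 0 for no effect and ±100 for the full control effect; nearly all actives have a fitted effect of over 50% in size; the assay follows cell death caused by Vpr and the record does not say whether a fall means rescue or toxicity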
#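 Fission yeast RE007 carrying one integrated HIV-1 vpr copy, seeded at OD 0.01 in PMG+AL medium with 23 nL pinned compound. Grown 24 h at 30 degrees; viability read by BacTiter-Glo luminescence after 5 min.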
# Cruzain inh noDet – qHTS Assay for Promiscuous and Specific Inhibitors of Cruzain (without detergent); purified cruzain, Z-FR-AMC fluorescence, no detergent; 200,000 compounds, 2.3% hits; Potency, µM, for the others: max response, negative = inhibition, usual class: inhibitors; AID 1476, 2009; active = well fitted curve in the direction sought with a large enough effect; inconclusive = small, poorly fitted or top-dose-only effect, or another doubt; inactive = no such curve, though single readings can be large; an effect the other way counts as inactive or inconclusive;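 note: plate controls were enzyme without inhibitor for no effect and buffer without enzyme for full effect; nearly all actives have a fitted effect of over 40% in size; top concentration of the series not given in the record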
#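 Detergent-free condition (0.00005% Triton X-100) in acetate buffer pH 5.5 with DTT. 1.5 nM enzyme and compound were pre-mixed 15 min, then 2 uM Z-FR-AMC substrate added; reaction progress from fluorescence change between first and third reads (60 s).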
# * marks the source's active call; other numbers are inactive results; u = inconclusive; x = not tested or not shown; & = joins results of further samples; [ ] = remark or other dose. Unless noted, calls come from the whole dose curve; as a rule, active means well fitted rising curve with a large enough effect; inconclusive means small, poorly fitted or top-dose-only effect; inactive means no such curve, though single readings can be large or run the other way. Potency is the fitted concentration of half-maximal effect.
SMILES,SARS PLP yeast,MARV entry inh,Cruzain Triton,2A StopGo,LASV entry inh,NS1 inh,RE007 growth inh,Cruzain inh noDet
COc1cc(CNCc2ccc3c(c2)OCO3)c([N+](=O)[O-])cc1OC,6%,x,x,16%,x,13%,-6%,x
Nc1ccc2nonc2c1[N+](=O)[O-],1%,16%,x,-6%,0%,x,-4%,x
N=C1CCCN1CC(=O)c1ccc(Br)cc1,-23%,u,-4.6%,0%,24%,2%,-8%,-9%
COCCCNC(=O)CCn1c(=O)c2ccccc2n(CC(=O)Nc2c(C)cc(C)cc2C)c1=O,x,2%[46.1 µM],0.0%,14%,-4%[46.1 µM],x,x,-14%
OCCC1CN(Cc2c(F)cccc2Cl)CCN1C1CCCC1 (centres undefined),0%,u,x,-17%,-26%[46.1 µM],1%,1%,x
O=C(COc1ccccc1)NC(=S)Nc1ccc2c3c(cccc13)CC2,7%,5%,-7.5%,-22%,-17%,6%,-8%,u
CCOC(=O)c1[nH]c(C)c(C(=O)OCC)c1C,-7%,x,0.9%,29%,x,-87%,-13%,2%
Cc1ccc(-c2csnn2)cc1,1%,x,x,-9%,x,2%,-9%,x
Cc1cccc(-n2nnc(-c3nc(-c4cccs4)no3)c2N)c1,x,x,-0.6%,43%[activator],u,x,x,-1%
COC(=O)c1ccc(C(=O)OC)c(NC(=S)N2CCCCC2C)c1 (centres undefined),8%,u,-0.2%,14%,5%,-3%,-5%,0%
Cc1ccc2cc3cc(C(=O)NCCCN4CCCC4=O)oc3nc2c1,1%,-1%[46.1 µM],x,-2%,17%[46.1 µM],-2%,-14%,x
CC(=O)Nc1ccc(NC2=C/C(=N/S(=O)(=O)c3cccs3)c3ccccc3C2=O)cc1,-1%,5µM*,x,u,u,x,-13%,x
CCOC(=O)c1cnc2c(F)ccc(F)c2c1Sc1ccccc1,0%,u,x,-24%,3%[46.1 µM],-5%,3%,x
CC(=O)Nc1cccc(NC(=O)c2cc(C)on2)c1,-1%,18%,-0.6%,46%[activator],15%,-7%,-7%,-2%
O=C(CSCSCC(=O)Nc1ccc2c(c1)OCO2)Nc1ccc2c(c1)OCO2,0%,u,4.9%,x,-2%,-5%,-11%,-4%
COc1cc2c(c(OC)c1OC)CC(=O)N(C)CC2,7%,-2%,-0.4%,-24%,-1%,2%,3%,3%
Oc1c(C(c2ccccc2)N2CCN(Cc3ccccc3)CC2)sc2nc(-c3ccco3)nn12 (centres undefined),x,x,0.5%,4%,-7%[46.1 µM],x,x,-7%
COc1ccc(NC(=O)c2cc(-c3ccco3)nc3ccccc23)cc1S(=O)(=O)N1CCOCC1,-1%,x,x,-29%,x,u,-13%,x
COc1ccccc1/C=C/C(=O)Nc1ccc(S(=O)(=O)Nc2cc(C)on2)cc1,2%,12%,x,-21%,14%,-5%,-13%,x
O=C(Nc1ccccc1C(F)(F)F)Nc1cccc2ccccc12,1%,-17%,7.9%,-15%,3%,8%,1%,25µM*
CCC(C)NC(=O)CN(c1cc(Cl)cc(Cl)c1)S(C)(=O)=O (centres undefined),0%,x,x,8%,x,2%,-9%,x
O=C(CSc1nc2c(sc3ccccc32)c(=O)n1CCCN1CCOCC1)NC1CCCC1,1%,8.2µM*,-13%,27%,-3%,-4%,14%,-6%
O=C1c2ccccc2C(=O)N1CCc1c[nH]c2ccccc12,-1%,-13%,x,18%,u,-6%,-3%,x
COc1cc(C#Cc2c(-c3ccccc3)n(C)c3ccccc23)cc(OC)c1,-5%,x,x,-1%,x,16%,3%,x
COC(=O)C1C/C(=N\NS(=O)(=O)c2ccc(C)cc2)c2sccc2C1 (centres undefined),-2%,0%,-8.6%,-1%,1%,-1%,11%,4%
# The list continues:
SMILES,SARS PLP yeast,MARV entry inh,Cruzain Triton,2A StopGo,LASV entry inh,NS1 inh,RE007 growth inh,Cruzain inh noDet
CCCNC(=O)c1ccc(COc2cccc3ccccc23)o1,-6%,x,x,u,x,-25%,6%,x
COc1cccc(CNC(=O)C2CCN(c3cnccn3)CC2)c1,0%,5%,-5.7%,-5%,8%,-40%,2%,-4%
Cc1ccc(C(=O)OCC(=O)c2c[nH]c3ccccc23)cc1S(=O)(=O)N1CCCCC1,-7%,u,-5.3%,-12%,u,9%,5%,-13%
CC(C)NC(=O)CSc1nnc(-c2ccncc2)n1-c1ccccc1,-9%,u,2.1%,26%,-12%,0%,29%,-4%
O=C(NCCCn1ccnc1)c1cccc(S(=O)(=O)Nc2ccc(Br)cc2)c1,7%,-6%,x,43%[activator],5%,x,-6%,x
NC(=O)c1nsc(C(=O)N(Cc2ccccc2Cl)C(C(=O)NCC2CCCO2)c2ccc(O)cc2)c1N (centres undefined),-3%,16%[46.1 µM],x,13%,u,-12%,-12%,x
CCOCCCN(C(=O)CCC(=O)Nc1cc(C)on1)C(C(=O)NC(C)(C)CC)c1cccc(OC)c1OC (centres undefined),7%,0%[46.1 µM],x,-5%,-9%,-11%,-10%,x
O=C(O)c1ccccc1N=Cc1c(O)n(-c2nccs2)c(=O)c2ccccc12,0%,x,x,0%,x,6%,-5%,x
O=C(O)c1ccccc1Nc1cccc(C(F)(F)F)c1,-51%,-26%&-26%&-26%&-26%&-26%&-26%&-26%&-26%&-26%,-9.5%&-27%&0.5%,u,-2%,-26%,6%[18.4 µM],-1%&-18%&1%
COc1ccc(-c2noc(CCC(=O)N3CCN(c4cccc(C(F)(F)F)c4)CC3)n2)cc1,-9%,u,-6.1%,-3%,u,-40%,-13%,u
COc1ccc(Nc2nc3ccc(C)cc3cc2C#N)c(OC)c1,15%,u,-4.6%,42%[activator],13%,5%,x,-9%
Nc1c(C(=O)Nc2cccc(F)c2)nnn1-c1ccc2c(c1)OCCO2,4%,u,x,-18%,4µM*,3%,0%,x
CCCc1cc(=O)[nH]c(SCCOC(=O)c2ccccc2)n1,12%[6.58 µM],-11%,-3.3%,9%,u,-63%,1%,2%
Cn1cc(P(=O)(N2CCOCC2)N2CCOCC2)cc1P(=S)(N1CCOCC1)N1CCOCC1,3%,-14%[46.1 µM],x,-11%,2%[46.1 µM],-3%,5%,x
COc1ccc(CCCc2nnc(SCC(=O)Nc3cccc(C)c3)o2)cc1,-19%,13%[46.1 µM],1.9%&2.1%,u,20%[46.1 µM],4%,-14%,-21%&-4%
CCOc1cc2c(cc1OCC)-n1cccc1C(c1ccc(OC)c(O)c1)NC2 (centres undefined),1%,u,x,-15%,u,3%,8%,x
CCC(C)NC(=O)CCn1c(-c2ccccc2)cc(C(C)=O)c1C (centres undefined),4%,0%,-2.2%,0%,4%,-9%,8%,1%
Cn1c(N)c(C(=O)/C=C/c2ccccc2)c(=O)[nH]c1=O,2%,u,x,50%[activator],1%[46.1 µM],9%,-4%,x
Cc1ccc(CSc2nnc3[nH]c(=O)cc(C)n23)cc1,x,x,-2.2%,-7%,-12%[46.1 µM],x,x,1%
CCOC(=O)N1CCc2c(sc3c2c(=O)n(-c2ccc(CC)cc2)c(=O)n3Cc2cccc(OC)c2)C1,x,1%[46.1 µM],-1.9%,-19%,1%[46.1 µM],x,x,1%
Cc1cc(C(=O)OC2CCOC2=O)c2ccccc2n1 (centres undefined),-2%,21%,7.0%,x,1%,8%,-6%,-1%
FC(F)(F)C(Oc1nc(Nc2ccc(Cl)cc2)nc(N2CCOCC2)n1)C(F)(F)F,-5%,u,-17%,-23%,12%,5%,-4%,4%
O=C(c1ccc(F)cc1)C(CN1CCOCC1)c1ccccc1 (centres undefined),-19%,u,-0.1%,8.9µM*,u,-50%,u,10%
Cc1ccc(S(=O)(=O)N(C)CC(=O)Nc2nnc(CC(C)C)s2)cc1,7%,x,x,-23%,x,16%,16%,x
CCOC(=O)c1cccc(NC(=O)CC2C(=O)N(c3ccc(F)cc3)C(=O)N2C(C)C)c1 (centres undefined),x,x,-4.4%,-13%,-8%[46.1 µM],x,x,3%
# (further entries)
SMILES,SARS PLP yeast,MARV entry inh,Cruzain Triton,2A StopGo,LASV entry inh,NS1 inh,RE007 growth inh,Cruzain inh noDet
CCCCCCN=CC1=C(O)C(C(=O)OC)C(C)(C)CC1=O (centres undefined),3%,-31%,-1.8%,-23%,u,-2%,2%,-2%
N#CC1=C(N)Oc2cc(N)ccc2C1c1ccc(Cl)cc1 (centres undefined),-6%,u,x,-20%,u,20%,-19%,x
COC(=O)c1c(C)[nH]c(C(=O)/C=C/c2ccccc2Cl)c1C,-1%,x,x,20%,x,13%,-8%,x
COc1ccc(OCC(=O)N2CCN(CC3CC4C=CC3C4)CC2)cc1 (centres undefined),2%,2%,3.5%,-15%,-33%,3%,4%,4%
CCCn1c(N2CCN(C(=O)N3CCCCC3)CC2)nc2ccccc21,0%,-11%,4.7%,-17%,-13%,-10%,5%,3%
CC(Oc1ccc(F)cc1)C(=O)Nc1sc2c(c1C(=O)NCc1cccnc1)CCCC2 (centres undefined),-4%,1%,-1.2%,-19%,-2%,-8%,18%,0%
CCOCCCNC(=O)C(NC(=O)c1ccccc1O)c1ccccc1 (centres undefined),2%,14%[46.1 µM],x,11%,1%,x,-3%,x
O=C(CSc1nnc(COc2ccccc2)o1)N1CCCC1,0%,0%[46.1 µM],x,20%,20%[46.1 µM],5%,5%,x
O=C(NC1CCCCC1)c1cc(-c2ccccn2)nc2ccccc12,19%,-3%[46.1 µM],x,-25%,u,x,-9%,x
O=C(NCc1ccc(Cl)cc1)Nc1ccc(F)cc1,0%,x,x,31%[activator],x,1%,7%,x
O=C(CSc1nc2cc([N+](=O)[O-])ccc2n1-c1ccccc1)NCc1ccc2c(c1)OCO2,11%,u,-11%,-23%,u,4µM*,-8%,-14%
COc1ccc(CN(C(=O)CNC(=O)c2ccco2)C(C(=O)NCC2CCCO2)c2ccccc2)cc1 (centres undefined),3%,12%[46.1 µM],x,24%,x,-4%,-19%,x

# Source: PubChem
